# Bm FixLJ act: B. multivorans fixK reporter activation | B. multivorans fixK-promoter GFP reporter, 18 h; stronger effect = higher value | z-score (test concentration not listed) | 29,000 compounds, 0.3% hits;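 active = replicate mean overnight rise in green fluorescent reporter signal, 3 or more SD over negative controls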;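 note: score is relative to vehicle wells of the plate; 300 nL library stock went into each well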
# Numbers without * were called inactive. These rows are one share of the data; rates above refer to the full screens.
canonical_smiles	Bm FixLJ act
Cc1cc(C)n(CC(=O)N2CC3COC[C@]3(C(=O)N3CC(C)OC(C)C3)C2)n1 (stereo partly drawn)	-2.1
CCOc1cc(Br)c(C2C(C(=O)OC)=C(C)NC3=C2C(=O)c2ccccc23)cc1OCC (stereo not drawn)	-0.42
CCCn1cc(S(=O)(=O)c2ccc(C)cc2)c(=O)c2cc(OC)c(OC)cc21	-1.2
CC(C)Oc1cccc2c1c(NC(=O)COCC1CCCO1)nn2C (stereo not drawn)	-3.1
CN(CCn1cccn1)C(=O)C1CCCN(C2CCN(C(=O)C3CC3)CC2)C1 (stereo not drawn)	0.65
O=C(NCCc1c[nH]c2ccccc12)Nc1ccccc1C(F)(F)F	-2.9
O=C(NCc1cccnc1Oc1ccc(F)cc1F)c1ccc[nH]1	-1.2
O=C(O)C1CCC(C(=O)N2CCC(Oc3cccc(Cl)c3)CC2)C1 (stereo not drawn)	-1.5
CCc1ccc(CNC(=O)CN(c2ccc(C)cc2)S(=O)(=O)N(C)C)cc1	-0.54
CCc1ccc(C2CC(=O)c3c([nH]c(C(=O)OCCOc4ccccc4)c3C)C2)cc1 (stereo not drawn)	0.45
COc1ccc(-c2csc3nc(-c4ccc(F)cc4)oc(=O)c23)cc1	-0.97
CCc1ccccc1N1CC(c2nc3ccccc3n2CC(C)C)CC1=O (stereo not drawn)	-0.73
CN(C)S(=O)(=O)n1cc(/C=C(\NC(=O)c2ccccc2F)C(=O)NCCCn2ccnc2)c2ccccc21	-2.4
CCCCCCN1CC2(CCN(C(=O)CN3CCC(O)CC3)CC2)OC1=O	-0.49
COc1ccc(-c2nc3ccccc3n3c(-c4ccccc4)c4c(=O)n(C)c(=O)n(C)c4c23)cc1	-1.6
Cc1ccc(Nc2cc(C(=O)NC3CCCC3)c3ccccc3n2)c(C)c1	-1.6
COc1ccc(C2c3c(-c4c(C)cc(C)cc4O)n[nH]c3C(=O)N2Cc2ccco2)cc1 (stereo not drawn)	0.4
CN(CCc1noc(C(F)(F)F)n1)C(=O)c1ccccc1C(F)(F)F	-1.6
CC(C)c1nc(CNCCc2nc(-c3cccnc3)no2)co1	0.54
CC(C)c1ccc(S(=O)(=O)Nc2ccc3oc4c(c3c2)C(=O)CC(C)(C)C4)cc1	-0.16
CCOC(=O)CC(NC(=O)CCc1c(C)nc2ncnn2c1C)c1ccc(OC(C)C)cc1 (stereo not drawn)	-1.4
Cn1c(=O)cc(OCC(=O)NCc2ccc(F)cc2Cl)c2ccccc21	-1.7
O=C(CSc1ncc(S(=O)(=O)c2ccc(Cl)cc2)c(=O)[nH]1)Nc1ccc2c(c1)OCCO2	-0.91
CN1C[C@@H](NS(=O)(=O)N(C)C)C[C@@H]2c3cccc4c3c(cn4C)C[C@H]21	-1.3
Cc1cc(C)cc(NC(=O)C2CCN(c3cc(C)nc4c(-c5ccc(Cl)cc5)c(C)nn34)CC2)c1	-0.95

# Three entries out of the list, sorted by molar mass, low to high:
canonical_smiles	Bm FixLJ act
COc1ccc(-c2nc3ccccc3n3c(-c4ccccc4)c4c(=O)n(C)c(=O)n(C)c4c23)cc1	-1.6
Cc1cc(C)cc(NC(=O)C2CCN(c3cc(C)nc4c(-c5ccc(Cl)cc5)c(C)nn34)CC2)c1	-0.95
CCOc1cc(Br)c(C2C(C(=O)OC)=C(C)NC3=C2C(=O)c2ccccc23)cc1OCC (stereo not drawn)	-0.42

# Next results:
canonical_smiles	Bm FixLJ act
Cn1c(=O)c2c(-c3ccccc3)n(-c3cccc(C#N)c3)cc2n(C)c1=O	-1.3
COCCCNC(=O)Cn1cnc2sc(C)c(S(=O)(=O)N3CCN(c4ccccc4OC)CC3)c2c1=O	-0.28
Cc1ccc(-c2noc(CSc3nnc(C)n3-c3ccc(C)c(C)c3)n2)cc1	-3.1
Cc1noc(/C=C/N(C)C)c1S(=O)(=O)N1CCCC(C(=O)Nc2ccc(F)cc2F)C1 (stereo not drawn)	0.34
COc1ccc(Cl)cc1NC(=O)CSc1c2c(nc3ccccc13)CCC2	-0.01
O=c1c2sc3ccccc3c2n(Cc2ccc(F)cc2)c(=O)n1Cc1ccco1	-1.3
CC(=O)NCc1cc2n(n1)CCN(S(=O)(=O)c1ccc(O)c(C(=O)O)c1)C2	-0.15
CN(C(=O)CCNC(=O)Cn1cnc2ccccc2c1=O)c1ccccc1F	-1.1
O=C(Cn1ncc2c3ccccc3n(Cc3ccccc3)c2c1=O)NC1CCCCCC1	-1.3
CCC(=O)N1CCc2cc(S(=O)(=O)NC(CC(C)C)C(=O)Nc3cccc(C)c3C)ccc21 (stereo not drawn)	-3.8
Cc1ccc(-c2nn3c(-c4ccc(C)cc4)nnc3c3ccccc23)cc1	-1.5
Cc1ccc2nc3c(cc(C(=O)NCC4CCCO4)c(=N)n3C(C)C)c(=O)n2c1 (stereo not drawn)	-3.4
CCN(C(=O)Cn1ncc2c(=O)oc3ccccc3c21)c1ccccc1F	-0.93
C=CCc1cc(CN2CCC(O)(c3cccnc3)CC2)cc(OCC)c1OC	-1.7
CS(=O)(=O)NCCC(=O)NCc1nc(-c2ccccc2)n[nH]1	0.44
CCc1cc2c(-c3ccccc3)cc(=O)oc2c2c1OCN(Cc1ccc(F)cc1)C2	-0.48
CCCCCCN1CC2(CCN(C(=O)c3nc(C)oc3C)CC2)OC1=O	-1.1
COc1ccccc1OCCn1c(COc2cc(C)ccc2C)nc2ccccc21	-3.4
CCC(=O)N1CCc2cc(Br)cc(S(=O)(=O)N3CCCC(C(=O)Nc4ccc(C(C)C)cc4)C3)c21 (stereo not drawn)	-0.44
Nc1nc(NCCCOc2ccccc2)cc(C2CC(N)C2)n1 (stereo not drawn)	-0.7
CCCC1=Nc2cc(C(=O)NCc3ccccc3)ccc2Sc2ccccc21	-0.3
CC(C)Sc1ncc(Cl)c(C(=O)Nc2ccc(S(=O)(=O)N(C)c3ccccc3)cc2)n1	-1.9
Cc1ccc(NC(=O)c2cnn(-c3ccc(C)c(C)c3)c2C2CCN(C(=O)OC(C)(C)C)CC2)c(C)c1	2.3
COc1ccc(-c2nc(SCC(=O)NC3CCCC3)c(-c3ccc(F)cc3)[nH]2)cc1	-1.6
CC(C)Oc1ccc(C(=O)N(Cc2ccc(N(C)C)cc2)Cc2ccco2)cc1	-0.83
CCc1ccc(C(=O)c2cn(CC(=O)Nc3ccc(OC)cc3)c3cc4c(cc3c2=O)OCCO4)cc1	-0.76
COc1ccc(-c2noc(CN(C(=O)c3ccccc3Cl)C(C)C)n2)cc1	-1
COc1ccc(C(=O)NC(c2ccc3c(c2)CCO3)C2CC(O)C2)cc1C (stereo not drawn)	-2.4
Cc1cccc(Nc2c3c(nc4nncn24)CCC3)c1	-1
CCCN(CCC)CC(O)Cn1cc(/C=C/C(=O)c2ccc(Br)cc2)c2ccccc21 (stereo not drawn)	-1
CCC1=Nc2cc(C(=O)NC3CCCC3)ccc2Sc2ccc(Br)cc21	-0.6
COc1ccc(C)cc1S(=O)(=O)N1CCN(c2cccc(Cl)c2)CC1	0.6
COc1ccc(NC(=O)c2ccco2)cc1NC(=O)COc1cccc(C)c1C	-0.88
Cc1ccc(NC(=O)C(=O)NCc2ccco2)cc1	-2.4
CCCCNC(=O)CCn1c(=O)c2ccccc2n(Cc2ccccc2C#N)c1=O	-0.67
CNC(=O)c1ccc(Nc2nnc(-c3ccc(C)c(S(=O)(=O)NC(C)(C)C)c3)c3ccccc23)cc1	0.03
COc1ccc(C(C(=O)O)N2CCC(Oc3ccc(F)cc3)CC2)cn1 (stereo not drawn)	-1.3
CCc1cccc(NC(=O)Cn2c(=O)n(CCc3ccc(OC)c(OC)c3)c(=O)c3ccccc32)c1	0.06
Cc1ccc(-n2c(=O)[nH]c3cc(C(=O)NCc4ccccc4)ccc3c2=O)cc1	0.15
CC(c1ccon1)N(C)C(=O)CN1CCOc2ccccc2C1 (stereo not drawn)	-1.4
COc1cccc(C(=O)Nc2ccccc2-c2nnc(-c3cc(OC)ccc3Br)o2)c1	-1.4
Cc1ccc(CNC(=O)c2nc(SCc3ccccc3C)ncc2Cl)cc1	1
CCOC(=O)CSc1nnc2n(-c3ccccc3)c(=O)c3c4c(sc3n12)COC(C(C)C)C4 (stereo not drawn)	-0.57
CCOc1ccc(NC(=O)N(Cc2c[nH]c3ccccc23)C2CCCCCC2)cc1	0.65
COC(=O)C1CC(NC(=O)c2cc(-n3cccn3)ccc2Cl)CN1C (stereo not drawn)	0.04
COc1ccccc1Cn1cc(C(=O)c2ccc(F)cc2)c(=O)c2cc3c(cc21)OCO3	-0.78
COc1ccc(Cl)cc1NC(=O)CSC1=Nc2ccccc2C2=NC(CC(=O)NCc3ccc4c(c3)OCO4)C(=O)N12 (stereo not drawn)	-2.5
Cc1nnc(N2CCN(c3ccccc3)CC2)c2c1nnn2Cc1ccc(F)cc1	-0.29
O=C(NC1CCCC1Cc1ccc(F)cc1)c1cccc(=O)[nH]1 (stereo not drawn)	0.15
CC(C)n1ccc(C(=O)NC2COCC2Cc2ccnc3ccccc23)n1 (stereo not drawn)	-2.1

# Brought forward from above: three compounds, followed by the next part.
canonical_smiles	Bm FixLJ act
Cc1nnc(N2CCN(c3ccccc3)CC2)c2c1nnn2Cc1ccc(F)cc1	-0.29
O=C(NC1CCCC1Cc1ccc(F)cc1)c1cccc(=O)[nH]1 (stereo not drawn)	0.15
CC(C)n1ccc(C(=O)NC2COCC2Cc2ccnc3ccccc23)n1 (stereo not drawn)	-2.1
CCOc1ccc2cc(-c3nnc(Nc4ccc(C)cc4)s3)c(=O)oc2c1	-0.47
Cc1ccccc1OCc1nc2c3cnn(-c4ccccc4Br)c3ncn2n1	-1.6
Cc1ccc(CN2CCC3(CC2)CN(Cc2c(C)noc2C)CCO3)nc1	-0.69
CN(C)C(=O)CN1CCC(N(C)CC2(C)COC2)CCC1=O (stereo not drawn)	-1.2
CCOc1ccc(S(=O)(=O)Nc2ccc(OC)c(Cl)c2)c2cccnc12	1.1
Cc1ccc(C)c(NC(c2ccccc2)c2nnc(-c3ccccc3F)o2)c1 (stereo not drawn)	2.5
CC1CCC(NC(=O)C2(C)Cc3ccccc3C(=O)N2Cc2ccc(Cl)cc2)CC1 (stereo not drawn)	-1.7
CCOC(=O)c1ccccc1NC(=O)c1cc2c(s1)-c1c(C)cccc1OC2	-0.14
CN1C[C@H](C(=O)N[C@]2(C)O[C@@]3(O)[C@@H]4CCCN4C(=O)[C@H](Cc4ccccc4)N3C2=O)CC2c3cccc4[nH]cc(c34)C[C@H]21 (stereo partly drawn)	-1.2
COc1cc(NC(=O)c2cc(Cl)ccc2Cl)ccc1NC(=O)c1cc2ccccc2o1	-0.44
COc1ncccc1C(=O)N1CC(O)C(Cc2cnccn2)C1 (stereo not drawn)	0.66
COc1ccc(CNC(=O)Cc2c(C)c3c(cc(C)c4c(C)coc43)oc2=O)cc1	-0.88
Cc1ccc(CNC(=O)CCc2c(C)c3cc4c(C)coc4cc3oc2=O)cc1	-2.7
COCCn1c(=O)[nH]c2cc(C(=O)N3CCN(c4ccc(F)cc4)CC3)ccc2c1=O	0.38
Cc1ccccc1NC(=O)CSc1nc2c(c(=O)n(C)c(=O)n2C)n1Cc1ccccc1F	-1.2
COCC(=O)Nc1ccc(NC(=O)Cc2ccccc2)cc1OC	-1.2
CCOc1ccc(-c2cc3nc(C4CCN(C(=O)OC(C)(C)C)CC4)c(C(=O)Nc4cccc(Cl)c4C)cn3n2)cc1	-1
CCOc1ccc(S(=O)(=O)c2cn(Cc3ccc(C)cc3)c3ccc(OC)cc3c2=O)cc1	1.9
O=C(Nc1c(Cl)cccc1Cl)c1cc(-c2cccc(O)c2)on1	1.6
COc1ccc(-c2cc(C(F)(F)F)nc(-n3nc(C(F)(F)F)cc3C)n2)cc1	-1.3
CC(C)(CN1CCOCC1)NC(=O)c1ccccc1-c1nc(-c2ccccc2)no1	-0.82
COc1ccc(CCNC(=O)C(=O)Nc2ccccc2F)cc1	-0.76
Cc1ccc(Cn2c3ccccc3c3cnn(CC(=O)N4CCCCCC4)c(=O)c32)cc1	-0.41
COc1cccc(CNC(=O)CN(c2ccc(C(C)C)cc2)S(=O)(=O)c2c(C)n[nH]c2C)c1	-1.9
COc1cc2c(cc1OC)C(c1ccc(F)cc1)N(c1cccc(C#N)c1)C(=O)C2 (stereo not drawn)	-2

# A section from further up:
canonical_smiles	Bm FixLJ act
CCOc1ccc2cc(-c3nnc(Nc4ccc(C)cc4)s3)c(=O)oc2c1	-0.47
Cc1ccccc1OCc1nc2c3cnn(-c4ccccc4Br)c3ncn2n1	-1.6

# (cont.)
canonical_smiles	Bm FixLJ act
CCOC(=O)C1(C)C=C(Nc2ccc(OC)cc2)C(=O)N1c1ccccc1 (stereo not drawn)	-0.27
Cc1ccc(C2(O)CCN(C(=O)c3cc(-c4ccccc4)on3)CC2)nc1	-0.62
OCCNc1nc(C2CCOC2)cc(N2CCC(c3ccncc3)CC2)n1 (stereo not drawn)	-1.4
Cc1ccc(NC(=O)Cn2nnc3sc(-c4ccccc4)cc3c2=O)cc1Cl	1.2
CC(C)(C)c1ccc(-c2nc(NC(=O)CSc3ncnc4sc5c(c34)CCCC5)ns2)cc1	-2.3
Cc1cc(N2CCC(N3CCSCC3)CC2)nc(-c2ccccc2O)n1	-1.6
COc1ccc(CNC(=O)c2nc(S(=O)(=O)Cc3ccccc3)ncc2Cl)cc1	-0.73
COc1ccc2c(C)c(CCC(=O)NCc3ccc(C)cc3)c(=O)oc2c1	-1.6
COc1cccc(CNc2nc3c(-c4ccccc4)nnn3c3ccccc23)c1	-0.75
CCn1cc(C(=O)N2CCN(c3cccc(Cl)c3)CC2)c2cc(OC)c(OC)cc2c1=O	-0.55
Cc1oc2c(cc(NS(=O)(=O)c3ccc(F)cc3)c3ccccc32)c1C(=O)OCc1ccccc1	-0.93
Cc1oc2c(c1C(=O)N(C)CC1Cc3ccccc3CN1C)C(=O)CCC2 (stereo not drawn)	0.37

# Screening results from PubChem.
